Bioassay records (PubChem BioAssay)
eIF4H FP inh: inhibitors of RNA binding by human eIF4H; eIF4H fluorescence polarization binding assay; inhibition, % at 35 µM; AID 2012; actives 0.94% (n = 290,000);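 active means 50% or more with normal probe brightness, or confirmed in later tests; inconclusive means above 50% with abnormal brightness, or retests that disagree; inactive means below 50% or failed in later tests; about a fifth of its hits are not listed in these tables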;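 further: calls also rest on retests at 20 µM and on dose response follow-up; 0% = protein and probe with vehicle and 100% = probe without protein; strong numbers were not always called active; many hits fall short of the cut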
HIV Env fusion: blocks HIV Env-driven cell-cell fusion; HeLa-JRFL Env/CEM21 cell fusion, luciferase; inhibition, % at 12.3 µM; actives 1.1% (n = 360,000); AID 651610;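 active means mean replicate inhibition score of at least 50 and every replicate individually at or above 50; inconclusive means only one of the two criteria met; inactive means mean below 50 and not all replicates reaching 50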;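 further: 0% = plate neutral controls and 100% = maraviroc near 300 nM; one replicate is shown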
Yeast UUG start: alters start codon recognition fidelity in yeast; S. cerevisiae UUG-firefly luciferase reporter, luminescence/redox ratio; activity score, % at 18.7 µM; actives 0.13% (n = 350,000); AID 602363;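 active means replicate mean at a twofold rise or more, about +100% in these data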;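 further: firefly luciferase made from a UUG start codon reports start codon fidelity; reporter light over untreated wells divided by growth signal over untreated wells; some hits fall short of that in this replicate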
Rce1 inhib: blocks yeast Ras-converting enzyme; Q03530; yeast membranes, quenched prenylated peptide cleavage fluorescence; calls only; actives 0.27% (n = 290,000);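 active means fall in fluorescence gain of 50% or more versus controls, with final raw signal at or below 3038400; inconclusive means same 50% fall but final raw signal above 3038400; inactive means fall in fluorescence gain under 50%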;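 further: plate controls were neutral control wells for no effect and wells lacking membranes for full effect; tested at 10 µM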
Target sequence (Q03530 whole entry, looked up): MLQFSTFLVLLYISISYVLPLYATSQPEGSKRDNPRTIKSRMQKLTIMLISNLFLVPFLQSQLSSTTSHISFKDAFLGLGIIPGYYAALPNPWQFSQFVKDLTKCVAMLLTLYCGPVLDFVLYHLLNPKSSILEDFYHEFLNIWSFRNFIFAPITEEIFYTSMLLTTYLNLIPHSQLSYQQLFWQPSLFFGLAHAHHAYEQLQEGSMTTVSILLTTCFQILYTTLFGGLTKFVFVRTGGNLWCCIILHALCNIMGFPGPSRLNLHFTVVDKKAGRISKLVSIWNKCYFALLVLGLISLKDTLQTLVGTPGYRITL
MT1-MMP act inh: inhibitors of human MT1-MMP activation; P50281; HT1080 RFP-PRO-GFP cells, GFP/RFP ratio fluorescence, overnight; percent of plate control window, DMSO zero; GFP/RFP ratio change, % at 20 µM; actives 0.061% (n = 360,000);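 active means GFP/RFP ratio change of at least 30% with cell ATP level not reduced by more than half and red fluorescence within 50% of control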; further: strong numbers were not always called active
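Material: RFP-PRO-GFP reporter HT1080 cells. Dosing: single-point 20 µM compound, 1% DMSO. Controls: DMSO and RFP-L50D-GFP cell wells. Timing: cells overnight before dosing, compound overnight, 37 °C, 5% CO2. Measure: GFP/RFP fluorescence ratio.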
PABP polyA inh: PABP-poly(A) binding inhibition; actives 1% (n = 290,000); PABP-poly(A) RNA binding, fluorescence polarization; inhibition, % at 35 µM; P11940;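 active means 50% or more with normal probe brightness, or confirmed in later tests; inconclusive means above 50% with abnormal brightness, or retests that disagree; inactive means below 50% or failed in later tests; about a fifth of its hits are not listed in these tables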;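 further: calls also rest on retests at 20 µM and on dose response follow-up; controls were probe without protein and protein plus probe with vehicle; some compounds called inactive have numbers as strong as hits; many hits fall short of the cut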
Target sequence (P11940 whole entry, looked up): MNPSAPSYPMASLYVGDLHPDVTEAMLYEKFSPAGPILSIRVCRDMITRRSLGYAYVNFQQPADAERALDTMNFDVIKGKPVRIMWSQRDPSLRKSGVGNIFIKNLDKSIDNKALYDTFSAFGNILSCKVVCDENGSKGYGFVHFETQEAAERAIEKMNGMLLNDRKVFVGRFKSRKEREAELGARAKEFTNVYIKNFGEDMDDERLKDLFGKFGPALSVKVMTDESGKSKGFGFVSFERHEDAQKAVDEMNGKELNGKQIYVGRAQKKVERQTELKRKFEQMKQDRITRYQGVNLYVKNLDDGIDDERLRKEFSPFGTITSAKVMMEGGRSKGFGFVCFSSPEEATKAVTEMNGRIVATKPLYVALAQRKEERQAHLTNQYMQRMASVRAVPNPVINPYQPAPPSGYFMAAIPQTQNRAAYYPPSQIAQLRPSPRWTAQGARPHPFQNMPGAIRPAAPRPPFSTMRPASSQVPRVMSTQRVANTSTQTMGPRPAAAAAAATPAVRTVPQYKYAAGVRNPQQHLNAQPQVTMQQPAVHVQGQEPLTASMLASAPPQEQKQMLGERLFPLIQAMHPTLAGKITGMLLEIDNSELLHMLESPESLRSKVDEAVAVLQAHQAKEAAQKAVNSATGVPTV
CSC inhib: cancer stem cell inhibition; cancer stem cell-like cells viability, luminescence; inhibition, % at 7.5 µM; actives 1.1% (n = 300,000); AID 2717;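 active means mean at 75% or more and at least half the replicates too; inconclusive means mean and replicates disagree; tested in HMLE shEcad cells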;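 further: 0% = median of negative and 100% = median of positive control wells; the first replicate is given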
eIF4H FP inh retest: recorded beside eIF4H FP inh, whose call it bears; inhibition, %; compound at 20 µM; confirmation average;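 mean of two retest wells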
PABP polyA inh retest: further read-out of PABP polyA inh, marked with its call; inhibition, %; compound at 20 µM; confirmation repeats;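 mean of two retest wells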
MT1-MMP act inh RFP: second read-out of MT1-MMP act inh, no call of its own (marks repeat the call); RFP signal change, %; measured here: RFP expression control read;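 0 = vehicle wells; hits needed this value within 50% of zero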
The depositor's hits bear a star; i = inactive; ? = inconclusive; . = not tested or not shown. This is a subset (hit frequency here may not be typical).

SMILES	eIF4H FP inh	HIV Env fusion	Yeast UUG start	Rce1 inhib	MT1-MMP act inh	MT1-MMP act inh RFP	PABP polyA inh	CSC inhib	others
CCCCN(C(=O)Cn1nnc2ccccc21)C(C(=O)NCCOC)c1cccs1 (centres undefined)	9.1	-26.1	-5.1	i	-3.3	-0.6	6.0	-6.4
O=c1c2ccccc2ncn1Cc1ccc(Cl)c(Cl)c1	2.5	15.2	-6.9	i	-1.9	-4.2	-1.9	24.7
COc1cccc(NC(=O)C2CCCN(S(C)(=O)=O)C2)c1 (centres undefined)	-0.4	-95.6	-8.9	i	-1.2	-1.1	7.3	-12.9
CN(CC(=O)Nc1ccc(F)c(F)c1F)C(=O)C1CC(=O)N(c2ccc3c(c2)OCCO3)C1 (centres undefined)	.	-12.7	.	i	0.9	2.2	.	-9.3
CSc1nnc([C@H](Cc2c[nH]c3ccccc23)NC(=O)OC(C)(C)C)o1	4.1	0.8	.	i	-0.8	-1.4	-12.8	-8.3
Cc1ccc(C(=O)NCc2ccco2)cc1S(=O)(=O)N1CCCC1	-28.1	10.1	-11.6	i	-3.0	-4.4	-1.2	-1.4
COC(=O)c1ccccc1Nc1ccnc(Cl)n1	.	-1.2	-6.8	.	1.2	1.7	.	2.9
Cc1c(NC(=O)COC(=O)c2ccccc2O)c(=O)n(-c2ccccc2)n1C	.	10.8	-8.8	.	4.9	5.3	.	.
N=C1CCCN1CC(=O)c1cccs1	-3.8	0.1	.	i	-4.5	2.6	-8.3	.
CC(C)c1cc(-c2cc(-c3ccccc3)on2)nc(NC2CCCC2)n1	6.2	4.4	2.1	i	-1.5	0.6	2.7	85.0*

Filtered by structure, the compounds so far with a Cl atom (two)
SMILES	eIF4H FP inh	HIV Env fusion	Yeast UUG start	Rce1 inhib	MT1-MMP act inh	MT1-MMP act inh RFP	PABP polyA inh	CSC inhib	others
O=c1c2ccccc2ncn1Cc1ccc(Cl)c(Cl)c1	2.5	15.2	-6.9	i	-1.9	-4.2	-1.9	24.7
COC(=O)c1ccccc1Nc1ccnc(Cl)n1	.	-1.2	-6.8	.	1.2	1.7	.	2.9

Remaining list, next part.
SMILES	eIF4H FP inh	HIV Env fusion	Yeast UUG start	Rce1 inhib	MT1-MMP act inh	MT1-MMP act inh RFP	PABP polyA inh	CSC inhib	others
CCOc1ccc(S(=O)(=O)N2CCCC(C(=O)NCC3CCCO3)C2)cc1 (centres undefined)	-4.6	-4.9	-5.0	i	-2.0	-2.8	3.9	-22.9
COC(C[C@@H]1O[C@H]1C(=O)COCc1ccccc1)OC	.	-9.9	-30.4	i	1.0	6.9	.	-5.2
O=C(/C=C/Nc1ccc(Nc2ccccc2)cc1)c1cccs1	55.4	-45.8	.	i	-26.7	-5.4	12.9	.	eIF4H FP inh retest=-12.0;PABP polyA inh retest=4.6
COC(=O)C1=C(C)N(CC2CC2)C(=NCc2cccc(C(F)(F)F)c2)N[C@H]1c1ccccc1	.	.	-1.2	.	-16.5	-1.7	.	6.3
O=C(Nc1cccc(C(F)(F)F)c1)c1cccnc1N1CCOCC1	4.2	4.0	-8.7	i	-0.3	1.6	3.4	0.5
Cc1ccc(C(=O)NC(C)c2ccc(F)cc2)cc1 (centres undefined)	1.9	0.4	.	i	2.0	5.3	-12.3	.
Fc1cnc(N/N=C/c2ccc(-c3ccc(Br)cc3)o2)nc1N1CCOCC1	9.1	5.7	-19.2	i	4.7	2.6	8.2	28.1
O=C(CNS(=O)(=O)Cc1ccccc1)NCc1ccccc1	-10.4	11.8	-12.5	i	-2.1	4.0	-7.3	3.3
CCN(CCCn1c(=S)[nH]c2ncccc2c1=O)c1ccccc1	0.7	-37.3	-14.7	i	1.4	-1.0	-0.3	1.2
O=C(N/N=C/c1c(Cl)cccc1Cl)c1ccc(-n2cnnn2)cc1	.	.	3.5	.	2.7	4.1	.	-5.8

Seven entries from above, sorted by number of heavy atoms, lowest first:
SMILES	eIF4H FP inh	HIV Env fusion	Yeast UUG start	Rce1 inhib	MT1-MMP act inh	MT1-MMP act inh RFP	PABP polyA inh	CSC inhib	others
COC(=O)c1ccccc1Nc1ccnc(Cl)n1	.	-1.2	-6.8	.	1.2	1.7	.	2.9
O=C(/C=C/Nc1ccc(Nc2ccccc2)cc1)c1cccs1	55.4	-45.8	.	i	-26.7	-5.4	12.9	.	eIF4H FP inh retest=-12.0;PABP polyA inh retest=4.6
Cc1ccc(C(=O)NCc2ccco2)cc1S(=O)(=O)N1CCCC1	-28.1	10.1	-11.6	i	-3.0	-4.4	-1.2	-1.4
CC(C)c1cc(-c2cc(-c3ccccc3)on2)nc(NC2CCCC2)n1	6.2	4.4	2.1	i	-1.5	0.6	2.7	85.0*
CCOc1ccc(S(=O)(=O)N2CCCC(C(=O)NCC3CCCO3)C2)cc1 (centres undefined)	-4.6	-4.9	-5.0	i	-2.0	-2.8	3.9	-22.9
Fc1cnc(N/N=C/c2ccc(-c3ccc(Br)cc3)o2)nc1N1CCOCC1	9.1	5.7	-19.2	i	4.7	2.6	8.2	28.1
COC(=O)C1=C(C)N(CC2CC2)C(=NCc2cccc(C(F)(F)F)c2)N[C@H]1c1ccccc1	.	.	-1.2	.	-16.5	-1.7	.	6.3

More records follow.
SMILES	eIF4H FP inh	HIV Env fusion	Yeast UUG start	Rce1 inhib	MT1-MMP act inh	MT1-MMP act inh RFP	PABP polyA inh	CSC inhib	others
Cc1ccc(CN2CC(C(=O)NCC(=O)Nc3c(C)cccc3C)CC2=O)cc1 (centres undefined)	.	-0.4	12.1	i	-2.8	1.4	.	-7.1
CCn1c(N2CCN(C(=O)C34CC5CC(CC(C5)C3)C4)CC2)nc2ccccc21	-1.8	.	1.5	.	1.4	-4.6	14.9	8.0
O=C(COc1coc(CN2CCc3ccccc32)cc1=O)Nc1ccccc1	.	5.5	.	i	-0.7	-0.1	.	6.6
Cc1ccc(Cn2cc(SCC(=O)Nc3nccs3)c3ccccc32)cc1	-3.2	-7.7	-6.9	i	18.8	-6.4	5.3	3.2
CCC(CC)C(=O)c1c[nH]c(C(=O)NCCc2ccccn2)c1	-2.0	.	-0.6	i	-0.2	-3.0	3.8	-20.5
COc1ccc(-c2noc(N(C)CC(=O)Nc3cccc(C(F)(F)F)c3)n2)cc1	-12.0	.	-6.8	i	-4.0	-8.2	-6.4	14.3
Cc1ccc(NC(=O)Cc2c(F)cccc2Cl)cc1S(=O)(=O)N1CCOCC1	.	1.6	-8.7	.	5.9	-1.4	.	-18.7
Cc1sc(-c2ccccn2)nc1OC(=O)c1ccc(Cl)c(Cl)c1	0.0	-28.4	-17.2	i	3.0	0.5	-10.2	-3.8
O=C(Nc1cccc(Cl)c1)NC1CCN(C2CCCCC2)C1 (centres undefined)	-11.9	7.1	-12.3	i	2.3	-0.8	-9.1	2.1
OC(CNCc1ccc(Cl)cc1)(c1ccccc1)c1ccc(F)cc1 (centres undefined)	8.0	14.5	.	i	-3.5	1.0	3.9	-8.6

Structures listed so far that contain a thiophene ring, fused or not, in the order listed:
SMILES	eIF4H FP inh	HIV Env fusion	Yeast UUG start	Rce1 inhib	MT1-MMP act inh	MT1-MMP act inh RFP	PABP polyA inh	CSC inhib	others
CCCCN(C(=O)Cn1nnc2ccccc21)C(C(=O)NCCOC)c1cccs1 (centres undefined)	9.1	-26.1	-5.1	i	-3.3	-0.6	6.0	-6.4
N=C1CCCN1CC(=O)c1cccs1	-3.8	0.1	.	i	-4.5	2.6	-8.3	.
O=C(/C=C/Nc1ccc(Nc2ccccc2)cc1)c1cccs1	55.4	-45.8	.	i	-26.7	-5.4	12.9	.	eIF4H FP inh retest=-12.0;PABP polyA inh retest=4.6

The list continues.
SMILES	eIF4H FP inh	HIV Env fusion	Yeast UUG start	Rce1 inhib	MT1-MMP act inh	MT1-MMP act inh RFP	PABP polyA inh	CSC inhib	others
O=C(c1cccc(Cl)c1)N1CCN(C2CCCCCC2)CC1	-7.4	.	-28.5	i	5.8	5.4	-0.2	-2.5
COc1ccc2cc(C3NC(=O)c4ccccc4N3)c(Cl)nc2c1 (centres undefined)	6.3	5.5	.	i	1.1	-1.1	2.6	-13.3
CCCCN(C(=S)Nc1cccc(C)c1C)c1c(N)n(CCC)c(=O)[nH]c1=O	-1.9	27.7	.	i	-3.4	-0.8	?	-27.9
COc1cccc2c3c(c(C)nc12)CC(C)O3 (centres undefined)	3.4	i	-14.2	i	-3.0	0.7	-4.2	16.1
CC1Oc2ccccc2C=C1/C=C1/SC(N2CCOCC2)=NC1=O (centres undefined)	-2.1	-14.9	-13.7	i	-12.6	-3.4	3.5	-12.6
CCOC(=O)C1=C(C)N(CCCC(=O)O)C(=O)NC1c1cccs1 (centres undefined)	.	17.9	15.8	i	2.0	4.2	.	5.5
COc1cc(OC)cc(C(=O)N2CCN(C3CCN(Cc4ccccc4)CC3)CC2)c1	-3.6	.	.	i	3.8	0.0	15.6	9.6
Cc1cc(CSC(=N)N)c(CSC(=N)N)cc1C	4.4	-17.3	.	i	1.7	3.8	30.3	-1.3
O=C(NC1CCCCC1)C1CCCN1C(=O)Nc1ccccc1 (centres undefined)	4.3	-3.4	-4.7	i	-0.8	-0.6	0.5	-11.0
CC(C)n1cnnc1SCC(=O)Nc1ccc(Br)cc1F	-7.5	-5.5	.	i	-8.5	-1.2	-6.6	-6.3
COc1ccc(/C=N/NC(=O)C2CCN(c3ncc(C(F)(F)F)cc3Cl)CC2)cc1	-14.2	-2.3	-0.7	i	12.9	5.6	-4.0	-13.0
CCn1nnnc1SCC(=O)Nc1cc(OC)cc(OC)c1	-2.1	.	-36.9	i	2.1	2.6	-7.0	-10.3
COc1ccc(N2CCN(C(=O)/C=C/c3ccco3)CC2)cc1	-1.3	-2.5	-18.0	i	-1.7	-0.2	2.5	-8.6
Cc1cccc(C)c1OCC(=O)Nc1ccccc1C(=O)N1CCOCC1	-10.3	-5.5	-10.0	i	-0.5	0.5	-5.9	-13.8
COc1ccc(-n2c(SCC(=O)N3CCc4ccccc43)nnc2-c2c[nH]c3ccccc23)cc1	-7.6	-14.4	-13.7	i	7.7	9.3	-1.4	-6.7
O=C(O)C1Cc2ccccc2CN1C(=O)CSc1nnc2ccccn12 (centres undefined)	1.4	7.4	.	i	1.3	-1.6	-1.7	-12.5
CCOC(=O)C1=NNC(C(=O)c2ccc(Cl)cc2)C1c1ccccc1 (centres undefined)	-8.9	7.5	-13.7	i	5.5	0.8	-3.7	15.1
O=C(Nc1ccccc1C(F)(F)F)c1ccccc1Br	-3.7	-9.5	-11.8	i	-5.8	-0.6	-1.8	6.8
O=C(Cn1c(O)c(/C=C2\C=Nc3ccccc32)sc1=O)N1CCOCC1	8.2	-28.1	.	i	7.4	-0.6	-1.6	4.3
O=C(c1cc(-c2cccc3ccccc23)nc2ccccc12)N1CCN(CCO)CC1	.	.	0.8	.	0.0	1.7	.	16.3
O=C1CCN(Cc2cccnc2)CCN1[C@H](CO)c1ccccc1	-1.0	10.0	-23.6	i	1.4	3.0	-2.6	-4.6
COc1ccccc1N1CCN(C(=O)c2ccc(N3CCCCS3(=O)=O)cc2)CC1	-3.5	-4.0	-14.5	i	1.1	-4.9	5.3	-6.2
CCOc1ccc(NC(=O)CN(C)C(=O)CCc2ccccc2Cl)cc1OCC	-3.7	-7.4	4.9	i	-0.3	-1.2	7.9	-9.0
